# Compound activity deposited in PubChem by several laboratories.
# B2AR ag = agonists of human beta-2 adrenergic receptor inducing internalization. actives 0.43% (n = 340,000). response, % (concentration not given with the values). AID 504454. Am2.2-beta2AR cells, FAP receptor internalization, flow cytometry; reference of the scale not given here. P07550;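 active = response above a set limit, near 3 SD of response in nonfluorescent compounds, cut at about 42% in these data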;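 also: stock transfer was 100 nL into about 11 µL; a reference agonist was the positive control; negative values mostly stem from fluorescent compounds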
# Target sequence (P07550 whole entry, looked up): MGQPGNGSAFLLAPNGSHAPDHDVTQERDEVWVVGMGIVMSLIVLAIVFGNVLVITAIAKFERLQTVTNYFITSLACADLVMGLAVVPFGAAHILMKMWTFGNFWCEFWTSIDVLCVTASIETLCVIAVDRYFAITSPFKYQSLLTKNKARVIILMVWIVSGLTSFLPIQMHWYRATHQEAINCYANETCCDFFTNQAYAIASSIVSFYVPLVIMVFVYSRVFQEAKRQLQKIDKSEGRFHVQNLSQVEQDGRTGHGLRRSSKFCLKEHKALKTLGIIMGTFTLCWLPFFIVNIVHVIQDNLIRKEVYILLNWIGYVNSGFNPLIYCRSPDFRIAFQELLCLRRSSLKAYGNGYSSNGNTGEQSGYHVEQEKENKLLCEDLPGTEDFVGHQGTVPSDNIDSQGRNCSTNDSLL
# Calb FLC = affects C. albicans growth with fluconazole; C. albicans CaCi-2 (fluconazole-resistant clinical isolate) + fluconazole, Alamar Blue growth, 48 h; actives 0.57% (n = 300,000); growth inhibition, % (test concentration not listed);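 active = most replicates above 75%; inconclusive = exactly half above 75%; inactive = most below 75%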;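 also: all wells also contain fluconazole at 8 µg/ml as a sub-toxic cotreatment; 0% = median of DMSO wells and 100% = median of geldanamycin control wells; wells of about 8 µL received 7.5 nL stock; the first replicate is given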
# rRNA inh HTS = inhibitors of bacterial rRNA selective over humanized ribosomes. actives 1.6% (n = 350,000). E. coli WT GFP vs humanized-ribosome RFP mutants, fluorescence, 24 h; active compounds read low; DMSO median 0, no signal -100. GFP signal change (wild-type ribosome), % (no concentration beside the values). AID 720706;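 active = significant combined selectivity score with lowered wild-type GFP, culture density cut under 30%, mutant RFP and density less affected; inactive = any of these conditions unmet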; also: one replicate is shown; some compounds called inactive have numbers as strong as hits
# Beta apoptosis = beta cell apoptosis inhibition. AID 435005. INS-1E cytokine-induced death, ATP luminescence, 48 h; percent of positive-control rescue, neutral wells zero. protection from apoptosis, % (no concentration beside the values). actives 0.8% (n = 300,000);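 active = all replicates at 75% or more, or half of them and the mean; inconclusive = half reach 75% but not the mean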;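 also: 0% = cytokine-treated negative control wells and 100% = positive control rescue; higher means more ATP so stronger rescue from cytokine killing; wells of about 40 µL received 100 nL stock; the first replicate is given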
# LANA-H2B inh = blocks KSHV LANA binding to histone H2A/H2B | cell-free LANA-H2A/H2B peptide, fluorescence polarization | inhibition, % (test concentration not listed) | actives 0.6% (n = 320,000); in the data active = inhibition mostly above about 10%, no sharp cut-off; inactive = mostly below about 6.7%;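 also: stock transfer was 7.5 nL into about 10 µL; 0% = median of vehicle wells and 100% = median of positive control wells; one replicate is shown; the record names a cut of 25% in any replicate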
# ALR H2O2 inh = inhibitors of human sulfhydryl oxidase ALR; actives 3.8% (n = 290,000); inhibition, % (concentration not given with the values); purified ALR, DTT oxidation, H2O2 HRP-luminol luminescence; P55789;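 active = mean and each replicate at 75% or more; inconclusive = only one of the two met; inactive = neither met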;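 also: stock transfer was 7.5 nL into about 7.5 µL; 0% = neutral wells and 100% = wells with inactivated enzyme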
# Target sequence (P55789 whole entry, looked up): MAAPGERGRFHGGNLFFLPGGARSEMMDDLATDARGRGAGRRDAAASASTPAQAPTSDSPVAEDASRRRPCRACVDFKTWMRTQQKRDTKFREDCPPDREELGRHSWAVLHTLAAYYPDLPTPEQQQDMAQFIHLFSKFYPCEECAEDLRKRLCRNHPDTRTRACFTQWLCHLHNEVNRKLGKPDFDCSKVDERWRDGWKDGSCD
# A1 inh = inhibitors of the anti-apoptotic protein A1, read as caspase activation; MEF A1-2A-BIM cells, Caspase-Glo 3/7 luminescence, 3 h; percent of clofoctol response, vehicle zero; caspase activation, % (concentration not given with the values); actives 0.066% (n = 330,000); AID 2462;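 active = over half of replicate activation scores above 10%, or exactly half above 10 with the replicate mean above 10; inconclusive = replicate mean below 10 yet half the replicates above 10; inactive = over half of replicates below 10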;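 also: wells of about 30 µL received 50 nL stock; many hits fall short of the cut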
# T cruzi repl = blocks replication of Trypanosoma cruzi. T. cruzi beta-gal in NIH3T3, luminescence, 90 h. inhibition, % (test concentration not listed). actives 1.4% (n = 300,000). AID 1885;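 active = mean inhibition across valid replicates above about 55%, limit read from the data; inconclusive = mean below that limit but half or more replicates reach it; inactive = mean below it, under half of replicates reach it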;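 also: signal also drops with host cell toxicity which is not excluded here; 0% = plate median of DMSO wells and 100% = zero luminescence signal; higher percent means less beta-gal luminescence so fewer parasites; stock transfer was 50 nL into about 50 µL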
# rRNA inh HTS OD600 = also measured in rRNA inh HTS; calls as there; OD600 change, %; measured here: OD600 growth;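 optical density of the mix in the first replicate; 0 = DMSO median and -100 = no signal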
# rRNA inh HTS RFP = further read-out of rRNA inh HTS, marked with its call; RFP signal change, %; measured here: RFP humanized mutant strains;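 first replicate; 0 = DMSO median and -100 = no signal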
# Numbers without * were called inactive; ? = inconclusive; . = not tested or not shown. Only part of the results is shown; count on the stated rates, not on these rows.
SMILES,B2AR ag,Calb FLC,rRNA inh HTS,rRNA inh HTS OD600,rRNA inh HTS RFP,Beta apoptosis,LANA-H2B inh,ALR H2O2 inh,A1 inh,T cruzi repl
Cc1ccc(-n2nnnc2CNC(=O)C2CC(=O)N(c3ccccc3)C2)cc1C (configuration not stated),8,-3,3,3,1.3,.,-0.6,-8,-0.1,8
CN(C)C(CNS(=O)(=O)c1ccc(Br)cc1)c1cccnc1 (configuration not stated),1,-21,.,.,.,-3,-4.4,.,0.5,7
O=C(OCC(=O)N1CCN(C(=O)c2ccco2)CC1)c1cc(=O)c2ccccc2o1,-2,9,.,.,.,0,2.7,-11,1.5,-10
CC(C)(C)C(=O)NC(=S)NCc1ccccc1,-3,-1,.,.,.,-2,1.1,2,-0.8,-6
NCCCCCNC(=O)c1nc[nH]c1C(=O)NCC(=O)OCc1ccccc1,-2,.,1,-3,4.3,-4,-0.2,-2,1.0,.
O=C(CSc1ccccn1)Nc1ccc2ccccc2c1,.,-4,.,.,.,0,13,-58,0.3,-14
COCCNC(=O)c1cnn2c(C(F)F)cc(-c3ccc(C)cc3)nc12,6,3,8,6,-1.6,0,0.1,-1,0.1,23
CCN(CC)CCCNC(=O)C1c2cc(OC)c(OC)cc2C(=O)N(C)C1c1cccnc1 (configuration not stated),-1,6,15,22,1.1,-4,-6.1,.,-0.7,-5
O=C(c1cnc(N2CCN(c3ccccn3)CC2)c2ccccc12)N1CCN(c2cccc(Cl)c2)CC1,21,19,4,3,-0.5,75*,1.9,-1,-0.5,7
O=S1(=O)CC2N=C(N(Cc3c(F)cccc3Cl)c3ccccc3F)SC2C1 (configuration not stated),-2,16,.,.,.,-6,-1.1,.,0.5,-3
CN(C)c1ccc(-c2cc([C@H]3[C@@H]4C=CCC[C@@]4(C)C(=O)N3Cc3ccccc3)ccc2F)cc1,7,13,7,10,-0.3,-1,14*,.,-1.1,40
CC(C)NS(=O)(=O)c1ccc(CCC(=O)N2CCCC2)cc1,-2,-2,11,9,-3.6,-3,5.1,-17,-0.9,-2
CC(C)(C)NCC1(CO)SC(N)=NC1=O (configuration not stated),1,4,.,.,.,-8,-0.5,-7,-0.3,57*
CC(C)OCCCNCc1cccs1,0,-8,.,.,.,-6,-4.9,-4,0.6,-14
Cc1ccc(Sc2c(C)nn(C(=O)C3CC3)c2C)cc1,2,-14,.,.,.,-4,.,0,-1.2,-29
CCOC(=O)C1=C(C)NC(=O)NC1c1cn(-c2ccccc2)nc1-c1cccs1 (configuration not stated),-20,-5,.,.,.,.,0.8,-4,0.4,19
CCOCCCNS(=O)(=O)c1ccc(NC(=O)c2ccc(OC)c([N+](=O)[O-])c2)cc1,9,-8,1,11,-3.0,4,-0.2,2,0.2,-3
C#CC[N+](C)(C)CCCCCCCCCC,7,-25,.,.,.,16,-3.4,.,-0.4,28
CCCCc1nnc(NC(=O)C(C)Sc2nc(C)cc(=O)[nH]2)s1 (configuration not stated),18,25,.,.,.,-13,12*,5,0.0,-2
O=C(C[n+]1ccc2ccccc2c1)c1ccccc1,2,2,0,2,1.3,-9,-2.2,10,1.3,23
COc1cc(/C=C/c2[nH]c(=O)[nH]c(=O)c2[N+](=O)[O-])ccc1OCCC(C)C,2,-10,13,14,4.5,10,2.1,0,-0.5,-3
CCN(CC)S(=O)(=O)c1ccc(C(=O)Nc2ccc(Cc3ccncc3)cc2)cc1,14,19,-13,4,7.4,26,-3.0,.,-0.2,48
Cc1cc(C)c(Cn2c(=O)n(CCCC(=O)NCc3ccco3)c(=O)c3sccc32)c(C)c1,-3,-3,.,.,.,3,0.2,.,-0.5,-22
COc1cc2c(cc1NC(=O)c1cccc(Br)c1)CCCC2,-4,-3,.,.,.,23,2.2,0,1.1,11
CCOc1ccc(NC(=O)C2CCCN(c3cnccn3)C2)cc1 (configuration not stated),-3,-26,-4,15,-0.2,1,-1.8,-13,0.2,26

# Continued.
SMILES,B2AR ag,Calb FLC,rRNA inh HTS,rRNA inh HTS OD600,rRNA inh HTS RFP,Beta apoptosis,LANA-H2B inh,ALR H2O2 inh,A1 inh,T cruzi repl
COc1ccccc1NC(=O)C1CCCN(S(=O)(=O)c2ccc(-n3cnnn3)cc2)C1 (configuration not stated),0,1,5,10,0.3,-7,-0.9,-7,0.7,1
CCOC(=S)SCC(=O)Nc1nccs1,7,3,2,-4,1.5,-1,-1.3,88*,0.0,13
Cc1cc(S(=O)(=O)NC2CCCC2)ccc1-n1cnnn1,0,1,1,-2,-3.0,-3,-3.7,.,0.6,5
Cc1c(C)c2c(OCC(=O)Nc3ccc(CCO)cc3)cc3c(c2oc1=O)CCC(C)(C)O3,3,3,.,.,.,.,9.7,-27,-0.6,20
O=C(CN1CCOCC1)NNc1c2ccccc2nc2ccccc12,-13,-1,-32,7,-9.6,12,-1.3,98*,0.5,3
CCOc1ccc(S(=O)(=O)N2CCCCC2)cc1NC(=O)c1c(CC)noc1C,12,2,10,8,0.0,11,-0.2,3,-0.1,23
CCCCCNCC(=O)Nc1cc(C(F)(F)F)ccc1OCCOC,-4,7,7,-5,0.3,-11,-1.3,5,1.0,-2
O=c1ccnc(SCCc2ccc([N+](=O)[O-])cc2)[nH]1,3,-7,3,-4,0.5,-1,-5.1,?,-0.5,-3
Cc1c(Cl)c([N+](=O)[O-])nn1CC(=O)N1CCCc2ccccc21,-4,-2,14,5,-4.3,.,2.6,39,0.4,19
ONC(=Nc1ccc(Cl)cc1)c1ccccc1,0,?,.,.,.,-7,0.0,39,-0.3,-3
Cc1cc(NC(=O)COC(=O)c2c(Cl)cccc2Cl)no1,-3,.,9,13,-0.2,-4,-1.6,.,-0.2,.
O=[N+]([O-])c1ccc(COc2cccc3cccnc23)cc1,-2,-1,2,7,-1.8,-7,-1.6,2,-0.3,0
COCCn1c(SCc2nc3cc(OC)c(OC)cc3c(=O)[nH]2)nnc1-c1ccncc1,-3,1,.,.,.,0,2.9,-2,0.4,-9
CN(C)S(=O)(=O)c1cccc(C(=O)NC(=S)N(CCC#N)Cc2cccnc2)c1,3,-3,11,2,0.5,-6,1.0,5,1.0,-1
CNC(=O)c1sc(Nc2cc(C)ccc2C)nc1C,-5,30,0,-6,-1.5,3,3.8,1,0.6,4
O=C(NNc1nc2ccccc2s1)c1ccc(F)cc1,-5,0,2,-1,-3.9,15,.,.,-1.1,2
COc1ccc(NC(=O)CSc2nnc(-c3ccco3)c(-c3ccco3)n2)cc1OC,-3,5,-8,-8,-2.7,2,3.6,90*,0.1,16
O=C(CCc1nnc2n(Cc3ccccc3)c(=O)c3ccccc3n12)NCCCN1CCCCC1,-13,9,6,-2,0.6,-5,3.3,-2,0.7,2
CCn1cc(/C=N\NC(=O)Cc2ccc([N+](=O)[O-])cc2)c(C)n1,-9,8,.,.,.,-3,-8.8,-2,-0.9,-15
CCc1nc2ccc(C(=O)NCCCN3CCN(c4ccccc4F)CC3)cc2nc1CC,-1,7,-23,-23,3.7,3,1.8,-11,-0.4,14
COc1cccc(/C=N/NC(=O)c2cc3c(OC)cccc3[nH]2)c1OC,2,0,.,.,.,1,1.1,1,0.9,-8
CCn1cc(C(=O)NCc2ccco2)c(=O)c2cc(S(=O)(=O)N3CCCCCC3)ccc21,4,7,.,.,.,17,3.0,-18,0.7,-20
COc1cccc(OCC(O)CN2CCN(c3ccc(Cl)cc3)CC2)c1 (configuration not stated),8,-9,-17,-42,26,-6,0.1,45,0.5,-21
COc1ccc(/C=C(\C#N)C(=O)N2CCOCC2)cc1Br,7,45,.,.,.,-7,.,.,-0.4,-7
Cc1cc(C)nc(NC2=NCC(=O)N2c2ccc3c(c2)OCCO3)n1,-10,0,.,.,.,2,-2.6,-8,-0.4,-5

# Carrying on.
SMILES,B2AR ag,Calb FLC,rRNA inh HTS,rRNA inh HTS OD600,rRNA inh HTS RFP,Beta apoptosis,LANA-H2B inh,ALR H2O2 inh,A1 inh,T cruzi repl
Cc1ccc(C)c(NC(=O)CN(C)C(=O)c2cc(-c3cccs3)nn2-c2ccccc2)c1,-2,2,10,10,7.8,-3,-0.6,-4,-0.4,-4
O=C(NCCc1csc(-c2cccc(F)c2)n1)c1ccco1,-7,-13,-4,-20,-0.7,0,-0.1,-3,0.2,51
CCCCC1CCC(C(=O)N(CC(C)C)c2c(N)n(Cc3ccccc3)c(=O)[nH]c2=O)CC1 (configuration not stated),.,.,9,7,-1.9,85*,0.4,-3,29*,8
Cc1cc(NC(=O)CN(C)C)c([N+](=O)[O-])cc1C,1,-3,12,9,-4.8,-4,2.9,-12,4.1,-7
CN(Cc1ccccc1F)Cc1cc(=O)oc2cc(O)c(Cl)cc12,0,0,-7,-3,0.8,2,1.8,0,-0.3,0
COCCn1c(SCC(=O)Nc2cc(C)on2)nc2c(c1=O)SCC2,-8,-2,11,9,4.7,-3,7.1,-4,-0.1,6
CCOC(=O)C1CCCN(Cc2ccc(OCc3ccccc3)cc2)C1 (configuration not stated),1,0,-14,-14,-1.2,-4,3.4,-40,-0.6,62*
O=C(COc1ccccc1/C=C1\SC(=O)NC1=O)Nc1ccccc1,4,60,-1,4,4.7,0,0.6,.,1.0,4
CC(C)CC1NC(=O)c2ccc(Cl)cc2-n2c1nc1ccc(F)cc1c2=O (configuration not stated),.,.,-10,-14,6.4,-9,2.8,-1,-0.1,.
O=[N+]([O-])c1ccc(OCCCCN2CCc3ccccc3C2)cc1,-1,-8,-9,6,-3.8,-5,0.0,-6,0.0,42
S=c1[nH]nc(-c2ccco2)n1/N=C/c1ccc(Cl)c(Cl)c1,-5,26,.,.,.,0,-1.8,31,1.1,-10
O=C(Nc1ccc(S(=O)(=O)N2CCCC2)cc1)c1cccs1,-11,-27,-20,-14,-2.5,0,-10,23,-0.1,-3
CC(NC(=O)CSc1nnnn1C1CC1)c1ccccc1Br (configuration not stated),2,.,1,-2,-1.5,0,-1.1,-4,0.5,.

# Full records from above. Order of screens: B2AR ag | Calb FLC | rRNA inh HTS | rRNA inh HTS OD600 | rRNA inh HTS RFP | Beta apoptosis | LANA-H2B inh | ALR H2O2 inh | A1 inh | T cruzi repl
# `O=C(CSc1ccccn1)Nc1ccc2ccccc2c1` reads . | -4 | . | . | . | 0 | 13 | -58 | 0.3 | -14
# `Cc1c(Cl)c([N+](=O)[O-])nn1CC(=O)N1CCCc2ccccc21` reads -4 | -2 | 14 | 5 | -4.3 | . | 2.6 | 39 | 0.4 | 19
# `COc1cccc(/C=N/NC(=O)c2cc3c(OC)cccc3[nH]2)c1OC` reads 2 | 0 | . | . | . | 1 | 1.1 | 1 | 0.9 | -8
# `CC(C)(C)NCC1(CO)SC(N)=NC1=O` (configuration not stated) reads 1 | 4 | . | . | . | -8 | -0.5 | -7 | -0.3 | 57*
